ALR inh: inhibitors of human ALR sulfhydryl oxidase, primary screen, biochemical, H2O2 detection, HRP-luminol luminescence, single point; AID 485317, 2010; inhibition, % (concentration not given with the values); FAD-linked sulfhydryl oxidase ALR (Homo sapiens), P55789; purified ALR, DTT oxidation; hit rate 3.8% among 290,000;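 active = mean and each replicate at 75% or more; inconclusive = only one of the two met; inactive = neither met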;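 note: stock transfer was 7.5 nL into about 7.5 µL; 0% = neutral wells and 100% = wells with inactivated enzyme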
Target sequence (P55789 whole entry, looked up): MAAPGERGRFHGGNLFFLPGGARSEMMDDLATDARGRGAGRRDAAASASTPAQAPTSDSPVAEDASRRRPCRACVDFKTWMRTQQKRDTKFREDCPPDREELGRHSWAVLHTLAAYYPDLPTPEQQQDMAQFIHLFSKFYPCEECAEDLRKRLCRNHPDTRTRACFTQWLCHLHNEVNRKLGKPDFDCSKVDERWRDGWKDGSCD
Ecoli rRNA inh: reduced GFP signal of wild-type E. coli, primary screen, bacterial rRNA inhibitor project, GFP/RFP fluorescence, OD600, single point; E. coli WT GFP vs humanized-ribosome RFP mutants, 24 h; stronger effect = lower value; DMSO median 0, no signal -100; hit rate 1.6% among 350,000; AID 720706, 2013; GFP signal change (wild-type ribosome), % (test concentration not listed);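 active = significant combined selectivity score with lowered wild-type GFP, culture density cut under 30%, mutant RFP and density less affected; inactive = any of these conditions unmet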; note: one replicate is shown; some compounds called inactive have numbers as strong as hits
Ecoli growth: E. coli growth inhibition, primary screen, OD600. Escherichia coli growth, 23 h; stronger effect = lower value. AID 1053175, 2014. OD600 absorbance (no concentration beside the values). hit rate 0.21% among 330,000;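 active = OD600 absorbance below the run mean of sample wells minus 3.6 SD, in any replicate, cut at about 0.56 in these data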;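 note: stock transfer was 300 nL into about 60 µL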
HNF4A DNA FP: change in binding of human HNF4A to DNA, primary screen, biochemical, fluorescence polarization, FITC-DNA. AID 1224865, 2016. activity change, % at 10 µM. 1 h. hit rate 0.3% among 360,000; in the data active = activity change above about 30%, passing the limit was not always enough;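 note: controls were the assay level and a saturating level of protein; the project sought stronger binding though the title names inhibitors; some compounds called inactive have numbers as strong as hits; positive values seem to mean higher polarization but the record does not say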
FGF22 binding: binders of human FGF22 protein, primary screen, FGF22 synaptogenesis inhibitor project, biophysical, thermal shift, single point; Fibroblast growth factor 22 (Homo sapiens), Q9HCT0; recombinant FGF22 thermal shift, SYPRO orange fluorescence; percent of sucrose octasulfate shift, DMSO zero; calls only at 9.99 µM; hit rate 1.5% among 340,000;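 active = melting point raised past a set limit in the mean and every replicate; inconclusive = no clear call; three in four hits are not shown here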
Target sequence (Q9HCT0 whole entry, looked up): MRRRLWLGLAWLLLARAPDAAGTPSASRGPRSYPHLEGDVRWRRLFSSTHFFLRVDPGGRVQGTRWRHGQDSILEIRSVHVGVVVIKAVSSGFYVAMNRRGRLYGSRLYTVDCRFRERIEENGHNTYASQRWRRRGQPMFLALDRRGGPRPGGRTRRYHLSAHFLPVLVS
Vif TR-FRET: inhibitors of Vif binding to APOBEC3G peptide, primary screen, biochemical, TR-FRET, GST-Vif 1-94, biotin-A3G peptide, dose response retest (AID 1117319) | hit rate 0.57% among 260,000 | TR-FRET GST-Vif / biotin-A3G peptide binding; higher % means a stronger effect; test concentration not given here; strong numbers were not always called active | inhibition, %, or IC50 in µM where a hit was titrated | Virion infectivity factor (Human immunodeficiency virus type 1 group M subtype B (isolate …;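 active = above the screen mean plus three standard deviations and confirmed in dose response; inconclusive = results disagree or hit not tested in dose response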;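 note: Vif residues 1-94 fused to GST binding biotinylated APOBEC3G peptide 110-148; 0% = full assay without inhibitor and 100% = GST in place of GST-Vif; retest series ran down from 100 µM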
AF4-AF9 inh: inhibitors of AF4 peptide binding to AF9, primary screen, biochemical, AlphaScreen, biotin-AF4 peptide, FLAG-AF9, single point; Protein AF-9 (Homo sapiens), P42568; inhibition, % at 10 µM; hit rate 0.47% among 350,000; AID 651704, 2012;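 active = every replicate reaching a set inhibition limit, whatever the replicate mean, cut at about 25% in these data; inconclusive = mean inhibition reaches that limit but some replicates miss it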;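 note: 0% = plate neutral control median and 100% = total signal loss; the record names both 10 and 1 µM as test concentration; the first replicate is given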
Target sequence (P42568 whole entry, looked up): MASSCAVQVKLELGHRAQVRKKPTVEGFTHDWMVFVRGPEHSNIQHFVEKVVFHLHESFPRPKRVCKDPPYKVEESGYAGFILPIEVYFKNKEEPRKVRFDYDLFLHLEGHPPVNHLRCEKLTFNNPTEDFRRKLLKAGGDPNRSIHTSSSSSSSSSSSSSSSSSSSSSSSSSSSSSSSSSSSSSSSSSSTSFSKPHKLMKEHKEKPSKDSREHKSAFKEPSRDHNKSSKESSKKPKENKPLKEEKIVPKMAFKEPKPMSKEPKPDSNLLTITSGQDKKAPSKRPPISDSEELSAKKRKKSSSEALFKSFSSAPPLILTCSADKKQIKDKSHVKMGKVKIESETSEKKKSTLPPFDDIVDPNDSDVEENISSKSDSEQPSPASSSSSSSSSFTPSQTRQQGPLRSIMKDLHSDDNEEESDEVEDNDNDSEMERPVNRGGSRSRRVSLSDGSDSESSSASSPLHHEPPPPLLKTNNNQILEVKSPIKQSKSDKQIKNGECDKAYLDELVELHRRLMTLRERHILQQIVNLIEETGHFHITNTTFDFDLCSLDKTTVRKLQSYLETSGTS
Ecoli rRNA inh OD600: second read-out of Ecoli rRNA inh, no call of its own (marks repeat the call); OD600 change, %; measured here: OD600 growth;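 optical density of the mix in the first replicate; 0 = DMSO median and -100 = no signal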
Ecoli rRNA inh RFP: second read-out of Ecoli rRNA inh, no call of its own (marks repeat the call); RFP signal change, %; measured here: RFP humanized mutant strains;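 first replicate; 0 = DMSO median and -100 = no signal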
Starred values were filed as active, the others as inactive; i = inactive; u = inconclusive; x = not tested or not shown. This is a subset; the hit share may differ from the screen's.

The first three compounds, ahead of the listing:
SMILES	ALR inh	Ecoli rRNA inh	Ecoli rRNA inh OD600	Ecoli rRNA inh RFP	Ecoli growth	HNF4A DNA FP	FGF22 binding	Vif TR-FRET	AF4-AF9 inh
C[C@@H]1CN([C@@H](C)CO)S(=O)(=O)c2ccc(-c3ccc(F)cc3)cc2O[C@@H]1CN(C)C	x	-1	-9	-0.8	x	x	i	x	0.5
CCCN1[C@H](C(=O)Nc2nccs2)[C@@H](CO)[C@@H]2Cn3c(ccc(-c4ccccc4OC)c3=O)[C@@H]21	x	-2	3	-1.1	x	x	i	x	1.8
CCOC(=O)CN1C(=O)C(=O)c2cccc(C)c21	-18	-10	-6	-2.8	0.73	0.9	i	2%	-9.8

The whole of this part, previewed entries included:
SMILES	ALR inh	Ecoli rRNA inh	Ecoli rRNA inh OD600	Ecoli rRNA inh RFP	Ecoli growth	HNF4A DNA FP	FGF22 binding	Vif TR-FRET	AF4-AF9 inh
C[C@@H]1CN([C@@H](C)CO)S(=O)(=O)c2ccc(-c3ccc(F)cc3)cc2O[C@@H]1CN(C)C	x	-1	-9	-0.8	x	x	i	x	0.5
CCCN1[C@H](C(=O)Nc2nccs2)[C@@H](CO)[C@@H]2Cn3c(ccc(-c4ccccc4OC)c3=O)[C@@H]21	x	-2	3	-1.1	x	x	i	x	1.8
CCOC(=O)CN1C(=O)C(=O)c2cccc(C)c21	-18	-10	-6	-2.8	0.73	0.9	i	2%	-9.8
O=C1c2ccc3c4c(ccc(c24)C(=O)N1c1ccc(O)cc1)C(=O)N(c1ccc(O)cc1)C3=O	-42	-4	-4	-0.6	x	-8.4	i	17%	-0.7
CCCCCCC(=O)Nc1nc(C)c(-c2csc(Nc3ccccc3OC)n2)s1	x	10	9	6.9	0.73	-3.1	i	7%	6.1
COCCn1c(Sc2ccc(C)cc2)nc2c1c(=O)[nH]c(=O)n2C	4	x	x	x	0.7	0.2	x	71%	x
Cc1ccc2nc(C)cc(Nc3ccc4c(c3)OCCO4)c2c1	0	x	x	x	0.71	4.2	x	6%	x
C[C@H]1CN([C@@H](C)CO)S(=O)(=O)c2ccc(-c3ccccc3F)cc2O[C@@H]1CN(C)Cc1ccncc1	x	-48	-62	27	x	x	i	x	7.0
CC(NC(=O)Cc1ccc(S(=O)(=O)N2CCOCC2)s1)c1ccc(Cl)cc1Cl (centres undefined)	x	-23	-24	0.3	0.74	4.2	i	-8%	0.8
COCC(=O)Nc1ccc2c(c1)[C@@H]1C[C@@H](CC(=O)NCc3ccccc3F)O[C@H](CO)[C@@H]1O2	x	-3	-1	-0.5	x	x	i	x	-0.7
COc1ccc(OC)c(C2C(C(C)=O)=C(O)C(=O)N2CCN2CCOCC2)c1 (centres undefined)	-40	x	x	x	0.67	-1.2	x	2%	x
CN(C)S(=O)(=O)N1CCN(CC(O)COc2ccc(-c3ccccc3)cc2)CC1 (centres undefined)	-1	-22	-18	2.0	0.61	4.3	i	-9%	-1.3
Nc1nc(SCC(=O)c2ccc(F)cc2)n[nH]1	5	7	3	-2.9	0.69	3.3	i	-8%	-1.1
Clc1nc(-c2ccccn2)nc2scc(-c3ccccc3)c12	3	x	x	x	0.62	-0.9	x	0%	x
Cc1ccc(S(=O)(=O)N2CCN(C(=O)N3CCOCC3)C2C)cc1 (centres undefined)	-6	x	x	x	0.72	4.9	x	-4%	x
Cc1cccc(N2C(=N)SCC2=O)c1C	0	x	x	x	0.7	-0.4	x	2%	x
O=C(NCCO)c1ccc2[nH]c3c(c2c1)CCCC3	-8	4	11	7.0	0.66	1.0	i	-4%	7.7
COc1ccccc1Cc1c(-c2cccc(Br)c2)nc2ccc(Cl)cn12	x	-5	-9	-3.5	x	34	x	x	2.1
COc1ccc(NC(=O)Nc2ccc3c(c2)C(=O)N([C@@H](C)CO)C[C@H](C)[C@@H](CN(C)S(=O)(=O)c2ccc(C)cc2)OCCCC[C@H](C)O3)cc1	x	2	4	2.2	x	x	i	x	-6.9
CCCNC(=O)C[C@@H]1CC[C@@H]2[C@H](COC[C@H](O)CN2C(=O)Nc2ccccc2OC)O1	x	5	4	2.8	x	x	i	x	-10
O=C(N[C@H]1C=C[C@H](CC(=O)N2CCN(c3ccccc3)CC2)O[C@H]1CO)c1ccncc1	x	2	4	3.1	x	x	i	x	-10
CC(C)CC#Cc1ccc2c(c1)O[C@@H](CN(C)Cc1ccccn1)[C@@H](C)CN([C@@H](C)CO)S2(=O)=O	x	-34	-43	9.7	x	x	i	x	5.8
O=c1c(N=Nc2ccc(O)cc2)c(-c2ccccc2)[nH]n1-c1ccc([N+](=O)[O-])cc1	-18	-3	0	-8.0	x	1.2	i	71%	-6.6
COc1cccc(CNC(=S)NC2CCCC2)c1	-5	5	8	-0.4	0.69	2.5	i	x	3.4
COc1ccccc1CCC(=O)OCC(=O)Nc1ccc(C(N)=O)cc1	-1	-4	0	-0.4	0.66	2.3	i	-5%	0.3
O=C(NNC(=O)c1ccccc1Cl)c1cccs1	-1	x	x	x	0.7	0.9	x	23%	x
Cc1ccccc1NC(=O)CSc1nc(Nc2ccccc2)nc(N2CCOCC2)n1	-2	x	x	x	0.8	1.5	x	3%	x
CN1CCC(N(C)C(=S)Nc2ccc(SC(F)F)cc2)CC1	-4	x	x	x	0.65	2.1	x	-5%	x
Cc1ccccc1OCc1nc2ccccc2c(=O)n1/N=C/c1cn[nH]c1-c1ccc(Br)cc1	-31	3	1	5.2	x	-2.2	i	x	-6.7
O=C1Nc2ccccc2N(O)N1c1ccc(Cl)c(Cl)c1	-7	8	14	-2.0	0.64	-0.6	i	-9%	0.3
O=C(COc1ccc([N+](=O)[O-])cc1)Nc1ccc(CN2CCOCC2)cc1	-18	12	11	10	0.71	1.4	i	13%	-9.4
CC(C)(C)c1nnc(NS(=O)(=O)c2cc(Cl)ccc2Cl)s1	5	-23	-41	-2.3	0.66	2.6	i	6%	-21
COCC(=O)N[C@@H]1C=C[C@@H](CC(=O)N2CCCCC2)O[C@@H]1CO	x	-1	1	1.3	x	x	i	x	-2.4
C(=N\N1CCOCC1)/c1cccs1	-2	x	x	x	x	1.4	x	25%	x
O=C(Nc1ccccc1F)N[C@H]1CC[C@H](CCNC(=O)C2CCC2)O[C@@H]1CO	x	4	11	-1.0	x	x	i	x	-2.1
Cn1c(=O)c2ccccc2n(CC(=O)N2CCCc3ccccc32)c1=O	x	0	16	-0.2	0.69	1.1	i	x	1.4
COC(=O)c1c(C(=O)OC)c(C)n(Cc2cccnc2)c1C	-2	x	x	x	0.77	-1.3	x	28%	x
O=C(NC12CC3CC(CC(C3)C1)C2)c1ccc(COc2ccc(Cl)cc2[N+](=O)[O-])o1	4	x	x	x	0.77	-4.1	x	2%	x
CC(C)c1ccc(NC2CCCN(C(=O)c3cscn3)C2)cc1 (centres undefined)	99*	2	4	-2.1	0.67	-2.7	i	-1%	-7.0
CCOC(=O)C1CCN(C(=O)c2ccc3c(c2)NC(=O)/C(=C\c2cccc(C)c2)S3)CC1	-1	-16	-10	2.8	0.73	0.9	i	x	1.8
C[C@@H]1CN([C@H](C)CO)S(=O)(=O)c2ccc(-c3ccccc3)cc2O[C@H]1CN(C)S(C)(=O)=O	x	1	-14	-2.3	x	x	i	x	2.4
COc1ccc(CN(C)C[C@@H]2Oc3ccc(NS(C)(=O)=O)cc3C(=O)N([C@@H](C)CO)C[C@@H]2C)cc1	x	4	1	-2.5	x	x	i	x	-2.9
O=C(COC(=O)CCCNC(=O)c1ccc(Cl)cc1)Nc1cc(Cl)ccc1Cl	-42	10	19	2.6	0.69	3.3	i	-11%	2.5
CCCN1[C@H](C(=O)NCC(F)(F)F)[C@@H](CO)[C@@H]2Cn3c(ccc(-c4ccccc4)c3=O)[C@@H]21	x	1	-1	3.9	x	x	i	x	0.8
COc1ccc(CN(C)C[C@H]2OCCCC[C@@H](C)Oc3ccc(NC(=O)Nc4ccc(OC)cc4)cc3C(=O)N([C@H](C)CO)C[C@H]2C)cc1	x	3	-13	4.6	x	x	i	x	2.1
CNC[C@H]1OCCCC[C@@H](C)Oc2ccc(NS(=O)(=O)c3cccs3)cc2C(=O)N([C@H](C)CO)C[C@H]1C	x	4	8	1.2	x	x	i	x	-6.8
COc1cccc(C(=O)NCC(=O)N/N=C(C)\C=C\c2ccccc2)c1	-11	-4	-10	1.0	x	1.7	i	u	-1.1
CCCC(=O)Nc1nnc(-c2ccco2)s1	8	x	x	x	0.76	0.5	x	6%	x
CCN(CC)S(=O)(=O)c1cccc(C(=O)Nc2ccc(Cl)cn2)c1	-17	x	x	x	0.68	-0.8	x	3%	x
NC(=O)[C@H](Cc1cc2ccccc2s1)NC(=O)[C@@H]1CC2(CC(c3cccc(NC(=O)[C@@H]4CCC(=O)N4)c3)=NO2)CN1C(=O)/C=C/c1c(F)cccc1Cl (some centres undefined)	-6	x	x	x	x	-3.1	x	-4%	x
Clc1cccc(N/N=C/c2ccc(N3CCOCC3)cc2)c1	-21	-10	4	-0.7	x	0.2	i	-3%	1.7
COc1ccccc1N1CCN(C(=O)CSc2nc3ccccc3c(=O)n2CC2CCCO2)CC1 (centres undefined)	-15	x	x	x	0.71	1.7	x	-2%	x
Cc1[nH]c(=O)[nH]c(=O)c1NS(=O)(=O)c1ccccc1	16	x	x	x	0.72	-1.6	i	x	-3.9
COc1cc(NC(=O)c2sc(C)nc2C)c(OC)cc1NC(=O)c1ccccc1	-15	0	7	-0.6	0.69	1.9	i	1%	0.3
O=S(=O)(c1ccccc1)N(CC(F)(F)F)c1ccc(C(O)(C(F)(F)F)C(F)(F)F)cc1	x	-44	-80	-15	x	-4.4	i	x	-2.7
O=C(CSc1nnc(COc2ccccc2)n1Cc1ccco1)c1ccc(F)cc1	14	x	x	x	0.67	2.8	x	6%	x
Cc1cc(NC(=O)COc2ccccc2C(N)=O)no1	-2	4	7	0.2	0.68	20	i	-6%	-2.3
C[C@H]1CN([C@@H](C)CO)C(=O)c2cc(C3=CCCC3)cnc2O[C@@H]1CN(C)C(=O)CN1CCOCC1	x	5	3	-1.9	x	x	i	x	-3.6
CC(=O)OC[C@@H]1CN(Cc2ccccc2)C[C@H](n2cnc3c(Nc4ccccc4)ncnc32)O1	x	x	x	x	x	-1.6	i	x	1.5
CC(C)CC(=O)Nc1ccnc(-c2ccncc2)n1	x	0	1	-1.1	0.71	-1.6	i	6%	2.1
O=C(c1ccc2nc(-c3ccco3)c(-c3ccco3)nc2c1)N1CCN(c2ncccn2)CC1	-9	x	x	x	0.7	-15	x	1µM*	x
Cc1nc2c(OCc3ccc(Cl)cc3Cl)cccn2c1N(C)Cc1cccs1	x	-9	-17	-4.1	x	-0.7	i	x	-0.6
Cc1c(NS(=O)(=O)c2cc(C(=O)NCC3CCCO3)cc(Cl)c2Cl)c(=O)n(-c2ccccc2)n1C (centres undefined)	4	1	0	0.2	0.71	-1.9	i	2%	-3.4

Screening results from PubChem.
